NPYLR7 ag: activates Aedes aegypti NPYLR7 receptor | activation, % at 10 µM | HEK293T NPYLR7/Galpha15, GCaMP6s calcium fluorescence | 0.15% of 270,000 active; in the data active means activation above about 40%;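 further: 0% = vehicle and 100% = reference agonist at the receptor; some compounds past the cut are filed as inactive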
NPYLR7 ag max-min: further read-out of NPYLR7 ag, marked with its call; activation, %; measured here: Max-Min RFU normalised activation; some inactives read as strong as hits;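 span of the calcium signal over five minutes; 0% = vehicle and 100% = native peptide agonist; compound fluorescence can raise it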
* marks the source's active call; other numbers are inactive results; & = joins results of further samples.

SMILES	NPYLR7 ag	NPYLR7 ag max-min
COCCn1c(C(=O)NCC(O)CO)cc2c(=O)n(C)c(=O)n(C)c21 (stereo not drawn)	0	1
Cc1ccc(Cn2c(=O)c3c(nc4n(CCOCCO)c(C)cn34)n(C)c2=O)cc1	0	3
CN(Cc1ccccc1)Cc1cc(C(=O)N(C)CC2CCCO2)no1 (stereo not drawn)	2	-1
COc1ccc(CCN(C)C(=O)CCN(CC(C)C)c2nc(Cc3ccc(C)cc3)ns2)cc1OC	-2	8
COCCCNc1nc2nonc2nc1N(C)C(C)c1nc(C)sc1C (stereo not drawn)	4	9
CCN(C(=O)CN1CCN(S(=O)(=O)c2ccc(Br)cc2)CC1)C1CCCCC1	0	2
Cc1cc(N2CCN(c3cccc(C(F)(F)F)c3)CC2)nc(SCc2cccc(C(=O)NCC3CCCO3)c2)n1 (stereo not drawn)	5	17
COc1cccc(CN(CCc2c[nH]c3ccccc23)Cc2nc(C(=O)NCC3CCCO3)co2)c1OC (stereo not drawn)	13	38
COC(=NC(=C(Cl)Cl)c1ccccc1)c1ccccc1	0	-3
COc1ccc(CCNC(=O)c2c(C)noc2-c2ccccc2OC)cc1OC	-2	4
CCOC(=O)C1CCCN(C(c2ccc(C)cc2)C2Sc3nc(CC)nn3C2=O)C1 (stereo not drawn)	0	16
CC(=O)c1ccc(C(=O)N(CCn2cccn2)c2nc3c(C)cc(C)cc3s2)cc1	-11	-19
Cc1cccc(C(C2Sc3nc(C)nn3C2=O)N2CCOCC2)c1 (stereo not drawn)	-1	-1
COc1ccc(S(=O)(=O)NC(=O)C2(C)CCN2C(=O)Cc2cccc3ccccc23)cc1 (stereo not drawn)	6	1
CC(C)(C(=O)NCc1ccccc1-n1cncn1)n1cccc1	-4	-8
C=CCCn1c(C(=O)N2CCN(C(=O)c3ccccc3C)C(C)C2)cc2ccoc21 (stereo not drawn)	-6	-2
CN=C(NC#N)NCCSCc1nc[nH]c1C	-2&0&0&9	-7&-7&-5&-7
CC(C)Sc1nnc2c3ccccc3n(C)c2n1	4	1
Cn1cc(NC(=O)Nc2c(F)cc(Br)cc2F)cn1	-5	-5
C[n+]1cc(-c2ccccc2)n2c1CCCCC2	0	67
COc1ccc(-c2nc3ccc(C)cn3c2NC(=O)c2ccc(Cl)cc2Cl)cc1OC	-3	6
COC(=O)c1ccc(Oc2c(C)oc3c4c(ccc3c2=O)OCN(C2CCS(=O)(=O)C2)C4)cc1 (stereo not drawn)	2	0
CS(=O)(=O)NC[C@H]1O[C@@H](CC(=O)N2CCCC2)[C@H](O)[C@@H]1O	-7	-16
O=c1nc(SCc2ccncc2)c2c(n1CCO)CCCC2	-6	-13
O=C(Nc1nnc(COc2ccc(Cl)cc2)s1)c1ccco1	-6	-12
CCS(=O)(=O)N1CCC(C(=O)O)CC1	-7	-9
CCOC(=O)C1(Cc2ccccc2)CCN(Cc2cc(Cl)c(O)c(OC)c2)CC1	2	-1
c1cncc(COC2CCN(Cc3cnc(-c4cccs4)nc3)CC2)c1	-3	-8
O=C(NNC(=O)c1ccccc1Br)c1ccc(Cn2nnc(-c3ccccc3)n2)cc1	0	3
Cc1ccc(NC(=O)NCc2nnc(SCc3ccc(F)cc3)n2-c2cc(Cl)ccc2C)c(C)c1	16	15
CN(CCS(=O)(=O)c1ccccc1)Cc1cc(Br)cn1C	4	1
CC(C)(C)C1=CC(=O)C(N(CCO)CCO)=CC1=O	1	1
Cn1ncc(Sc2ncc3ccccn23)c(Br)c1=O	15	7
CCCCc1cnc2c(c1SCC(=O)Nc1ccc(C(N)=O)cc1)c(=O)n(C)c(=O)n2C	6	11
COc1ccccc1Oc1cc(N2CCN(C(=O)c3cccc(F)c3)C(C)C2)ncn1 (stereo not drawn)	-9	-5
COc1cccc2c1OCC(C(=O)NCCc1nc3ccccc3s1)C2 (stereo not drawn)	-3	-5
CC(C)CN(C[C@@H](O)[C@H](Cc1ccccc1)NC(=O)O[C@H]1CO[C@H]2OCC[C@H]21)S(=O)(=O)c1ccc(N)cc1	-3	-12
CC(=O)c1nc(N2C(=O)CC(Cc3ccc(C)cc3)C2=O)sc1C (stereo not drawn)	0	-2
COc1ccc(OC)c(NC(=Nc2nc(C)cc(C)n2)NC(C)=O)c1	-7	-14
COc1ccc2sc(N(Cc3ccccc3)C(=O)CCS(=O)(=O)c3ccc(F)cc3)nc2c1	2	1
Cc1ccn2c(=O)nc(SCC(=O)Nc3ccccc3)nc2c1	2	0
CC(C)N1C(=O)CC(Nc2cc(C(F)(F)F)nc(-c3ccccn3)n2)C1=O (stereo not drawn)	1	-2
CC(=O)Nc1ccc(N=Nc2c(C)[nH]n(-c3nc(-c4ccc(C)cc4)cs3)c2=O)cc1	12	8
Cc1nc2ccc(CC(=O)N(C)Cc3ccccc3OCC(C)C)cc2[nH]1	2	7
CC(C)NC(=O)NCc1ccc(NC(=O)C23CC[C@@](C)(C(=O)O2)C3(C)C)cc1	0	2
COc1ccc(-n2c(SCc3ccccc3)nc3c(c2=O)SCC3)cc1	-1	-2
O=C(CO)N1C[C@H](Oc2ccccn2)[C@H]2C[C@@H]1CC[C@H]2N1CCOCC1	26	31
CCNC(=O)NC(=O)C(C)N1CCN(CC(=O)N2CCCCC2C)CC1 (stereo not drawn)	7	5
Cc1ncsc1CCC(=O)NC(C)c1ccccc1-n1cccn1 (stereo not drawn)	10	7
CCSc1nc(N2CCCCC2)c2cnn(CCNC(=O)Cc3ccc(F)cc3)c2n1	0	-1
Following part:
SMILES	NPYLR7 ag	NPYLR7 ag max-min
Cc1ccc(-c2nnc(NC(=O)C(NC(=O)Cc3ccccc3)C(C)C)s2)cc1 (stereo not drawn)	7	1
CC(C)NC(=O)CSc1cn(CC(=O)N(C(C)C)C(C)C)c2ccccc12	-4	-9
COc1ccc(C2=N/C(=C\C(Cl)=C\c3ccccc3)C(=O)O2)cc1	-1	-5
Cc1sc(NC(=O)CS(=O)c2nncn2C)c(C)c1C (stereo not drawn)	6	3
c1ccc(C2=Nn3cc(-c4ccccc4)nc3SC2)cc1	5	11
CN(Cc1ccc(Cl)cc1)C(=O)Cn1cnc2ccc([N+](=O)[O-])cc2c1=O	8	5
O=C(c1cccc(F)c1)N1CCCc2cc(S(=O)(=O)N3CCCC3)ccc21	-1	-4
Clc1ccc(-c2nnc3n2N=C(c2ccc(Cl)s2)CS3)cc1	10	10
CC(C)c1nc(C(N)=O)c2[nH]c(=O)n(-c3ccc(F)cc3)c2n1	1	-1
CN(C)c1ccc(Nc2nc3ccccc3n3nnnc23)cc1	10	-1
CCC(=O)Nc1ccc(N(C)C)c(CN(Cc2ccc(F)cc2)C(=O)c2ccccc2Cl)c1	14	22
COCC(=O)N(Cc1csc(COc2cc(C)cc(C)c2C)n1)C1CC1	3	9
CC(C)COCC(O)CN(Cc1ccccc1)Cc1cccn1C (stereo not drawn)	32	25
CC(=O)Cn1c(-c2ccccc2)cn2c3c(=O)n(C)c(=O)n(C)c3nc12	-2	20
Cc1ccc(C)c(OCc2cc(C(=O)NCc3nnc4n3CCC4)no2)c1	5	4
CCOCCn1c(=NC(=O)C2=COCCO2)sc2cc(OC)ccc21	6	3
O=C(CC(NCCCN1CCOCC1)C(=O)O)Nc1cccc2ccccc12 (stereo not drawn)	-1	-1
COc1cccc(/C=N\Nc2nc(N3CCOCC3)nc(N3CCOCC3)n2)c1O	29	4
CC(=O)N1CCN(c2nc3c(F)cc(F)cc3s2)CC1	-1	-1
CCCCCC(=O)Nc1c(-c2ccc(C)cc2)nc2ccc(C)cn12	-3	-3
CCc1ccc(-c2nn(CC(=O)Nc3ccc(OC)cc3)c(=O)c3nc(C)sc23)cc1	0	-2
CC(=O)c1ccc(NC(=O)C(C)SC/C=C/c2ccccc2)cc1 (stereo not drawn)	12	5
COc1ccccc1-c1cccc2c1COCC(=O)N2C	6	2
O=C(Oc1ccccc1)c1ccc(NCN2C(=O)c3ccc(Br)cc3C2=O)cc1	-1	0
CC1(C)CC(=O)C(=Cc2cn(-c3ccccc3)nc2-c2ccccc2)C(=O)C1	1	-3
CCCCn1c(CCC)nc2c(=O)n(C)c(=O)[nH]c21	-8	-13
COc1ccc(Cl)cc1NC(=O)CCC1CCCN(Cc2nc3ccccc3n2C)C1 (stereo not drawn)	13	3
Cc1ccc(C)c(Cn2c(=O)c3c(nc4n3CCN4c3ccc(Br)cc3)n(C)c2=O)c1	-13	-14
Cc1oc(-c2ccc3ccccc3c2)nc1CN1CCN(C(=O)c2ccco2)CC1	-1	-2
CC(C(=O)N(C)C)N(C)Cc1cccn1-c1ccccn1 (stereo not drawn)	-6	-9

Rewritten as a markdown table: 2 of the compounds above.
| canonical_smiles | NPYLR7 ag | NPYLR7 ag max-min |
| --- | --- | --- |
| CC(=O)c1ccc(NC(=O)C(C)SC/C=C/c2ccccc2)cc1 (stereo not drawn) | 12 | 5 |
| Cc1ccc(C)c(Cn2c(=O)c3c(nc4n3CCN4c3ccc(Br)cc3)n(C)c2=O)c1 | -13 | -14 |

Later entries
SMILES	NPYLR7 ag	NPYLR7 ag max-min
COC(=O)c1ccc(N2CCCC2)c(NC(=O)N2CCN(C(=O)C3CCCO3)CC2)c1 (stereo not drawn)	-3	-2
CS(=O)(=O)c1ccccc1C(=O)N1c2ccccc2CC1C(N)=O (stereo not drawn)	-6	-8
Cc1cc(=O)[nH]c(-n2nc(C)c(CCC(=O)N3CCCCC3C)c2C)n1 (stereo not drawn)	0	-2
CCONC(=O)c1cc(-c2ccccc2)nc2ccccc12	-2	27
CCOC(=O)c1nn(CCC(C)C)c2c1CN(C(=O)Cc1sc(C)nc1C)CC2	21	6
Cc1cnc(SCc2ccccn2)nc1C1CCCN(C(=O)c2ccc(-c3ccco3)cc2)C1 (stereo not drawn)	13	8
O=[N+]([O-])c1nn(-c2ccccc2)[n+]([O-])c1N1CCN(c2ccco2)CC1	-9	-15
CCCCN1CCC(n2c(=O)[nH]c3ccccc32)CC1	3	-44
CN(CCc1ccccc1)C(=O)[C@@]12CNC[C@@H]1CN(S(C)(=O)=O)C2	-4	-4
CC(C)(O)c1ccc(CN(Cc2cccc(F)c2)C2CC2)o1	11	15

Shown as labelled records: entries from further up.
CS(=O)(=O)c1ccccc1C(=O)N1c2ccccc2CC1C(N)=O (stereo not drawn)
  NPYLR7 ag = -6
  NPYLR7 ag max-min = -8

Cc1cc(=O)[nH]c(-n2nc(C)c(CCC(=O)N3CCCCC3C)c2C)n1 (stereo not drawn)
  NPYLR7 ag = 0
  NPYLR7 ag max-min = -2

Entries listed so far containing two or more sulfur atoms (4):
SMILES	NPYLR7 ag	NPYLR7 ag max-min
COc1ccc2sc(N(Cc3ccccc3)C(=O)CCS(=O)(=O)c3ccc(F)cc3)nc2c1	2	1
COc1ccc(-n2c(SCc3ccccc3)nc3c(c2=O)SCC3)cc1	-1	-2
Cc1sc(NC(=O)CS(=O)c2nncn2C)c(C)c1C (stereo not drawn)	6	3
Clc1ccc(-c2nnc3n2N=C(c2ccc(Cl)s2)CS3)cc1	10	10

Back to the main list with the 2 entries that preceded the break.
SMILES	NPYLR7 ag	NPYLR7 ag max-min
CN(CCc1ccccc1)C(=O)[C@@]12CNC[C@@H]1CN(S(C)(=O)=O)C2	-4	-4
CC(C)(O)c1ccc(CN(Cc2cccc(F)c2)C2CC2)o1	11	15
COC(=O)c1ccc2oc(=O)n(C3CCN(C(=O)[C@H](C)OC(C)=O)CC3)c2c1	4	0
CC1CCN(C(=O)c2cc(NC(=O)c3ccc(-c4ccccc4)cc3)c(=O)n(C)c2)CC1	-3	-3
CCN(C)C(=O)C1CN(C(=O)NC(C)(C)C)CC1c1cc(OC)c(OC)c(OC)c1 (stereo not drawn)	7	5
COc1ccc(-c2nn3c(N4CCC(C)CC4)cc(C)nc3c2C)cc1OC	3	-1
CN(C)CC1(O)CCN(C(=O)C2(c3ccccc3)CC2)C1 (stereo not drawn)	13	8
CC1(C)CC(=O)C2C(=Nc3ccccc3N(C(=S)Nc3ccccc3)C2c2cccc([N+](=O)[O-])c2)C1 (stereo not drawn)	0	-11
O=c1c(Cl)c(O)cnn1Cc1ccccc1	0	0
CC(C)C(=O)N1CCC1(C)C(=O)Nc1ccc(F)c(F)c1 (stereo not drawn)	-5	-5
CC(C)NC(=O)C1(C)CCN1C(=O)c1ccccc1F (stereo not drawn)	-2	-4
COc1ccc(-n2nnnc2CN2CCN(S(=O)(=O)c3ccc(F)cc3)CC2)cc1	0	0
Cn1cccc1C(=O)N1CCC(Cc2ccc(C(F)(F)F)cc2)CC1	13	20
Cc1nsc(NC(=O)NC(C)c2cccs2)n1 (stereo not drawn)	16	5
COc1ccc(NC(=O)CCC2CCCN(C(=O)COc3ccc(C)cc3)C2)c(C)c1 (stereo not drawn)	1	-4
CCSCCOC(=O)C1=C(C)NC2=C(C(=O)CC(c3ccc(Cl)cc3)C2)C1c1cccc(OC)c1 (stereo not drawn)	3	11
O=C(NCC1CCN(Cc2cccc(Cl)c2)C1)c1ccsc1 (stereo not drawn)	0	-2
CC(C)(C)C(=O)Nc1ccnn1C1CCN(Cc2ccccc2C(F)(F)F)CC1	11&19	4&8
Cc1c(Cl)cccc1NC(=O)Cn1nc(-c2ccco2)c2sc(N3CCCCC3)nc2c1=O	-1	-7
O=S(=O)(NCc1ccc(Cl)cc1)c1cnc[nH]1	7	11
Cc1cccc(C(=O)NCC(c2cccs2)N2CCN(C)CC2)n1 (stereo not drawn)	3	1
COc1ccc(C)cc1-c1cncnc1	12	2
CC(C)c1cc(N2CCN(c3ccccn3)CC2)n2c(nc3ccccc32)c1C#N	1	0
O=C(Nc1ccccc1)C1CCN(C(=O)c2nc(N3CCOCC3)ncc2Cl)CC1	8	4
Cc1cc(C)c(-c2csc(NC(=O)CCl)n2)c(C)c1	-4	-5
CCn1nc(C(=O)N=c2sc3cccc(Cl)c3n2C)cc1C	2	2

Some of the compounds tested. The share of hits here may be higher or lower than overall.
